# TRPML1 ag – human mucolipin-1 channel agonism; activation, % (test concentration not listed); Q9GZU1; TRPML1-expressing cells, Ca2+ dye fluorescence, FDSS; host cell line not named in the record; reference of the full effect not given here; AID 624414; 0.12% of 410,000 active; in the data active = activation above about 50%; inconclusive = about 30% to 50%; inactive = below about 30%; note: 0% is about no effect; the text of the record puts the active cut at 80%
# Target sequence (Q9GZU1 whole entry, looked up): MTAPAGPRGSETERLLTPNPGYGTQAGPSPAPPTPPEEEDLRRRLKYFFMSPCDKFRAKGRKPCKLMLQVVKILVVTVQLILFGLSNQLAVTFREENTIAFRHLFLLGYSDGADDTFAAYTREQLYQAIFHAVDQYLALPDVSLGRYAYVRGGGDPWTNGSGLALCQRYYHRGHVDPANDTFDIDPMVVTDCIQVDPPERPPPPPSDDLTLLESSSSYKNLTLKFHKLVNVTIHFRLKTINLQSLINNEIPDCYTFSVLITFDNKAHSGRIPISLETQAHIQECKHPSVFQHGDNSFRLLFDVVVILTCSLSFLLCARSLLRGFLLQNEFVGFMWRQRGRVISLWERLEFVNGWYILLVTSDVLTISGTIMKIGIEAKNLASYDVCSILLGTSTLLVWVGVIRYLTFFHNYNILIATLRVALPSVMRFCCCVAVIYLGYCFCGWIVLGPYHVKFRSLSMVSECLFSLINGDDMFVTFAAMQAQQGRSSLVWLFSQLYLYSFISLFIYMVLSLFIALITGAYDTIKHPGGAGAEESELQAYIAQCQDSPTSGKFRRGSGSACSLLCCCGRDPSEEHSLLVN
#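 Calcium fluorescence on an FDSS kinetic reader gave the read-out. Tet-induced TRPML1-DL cells were plated overnight, dye-loaded (Ca8 with quencher, 45-90 min, room temperature, dark), then read 110 s after compound addition, and again 110 s after 4uM final 54-4 (EC80).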
# TRPML1 blocker – human mucolipin-1 channel inhibition | TRPML1-inducible cells, Ca2+ dye fluorescence, FDSS; stronger effect = lower value; inhibition of EC80 agonist-evoked calcium signal | Q9GZU1 | 0.02% of 390,000 active | activity change, negative = inhibition, % (test concentration not listed); in the data active means activity change below about -50%; inconclusive means about -30% to -50%; inactive means above about -30%;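 note: stimulus is agonist 54-4 at its EC80 concentration; % is set by controls: 0 for no effect and ±100 for the full control effect; compound concentration not given in the record; the text of the record puts the active cut at -80%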
#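 Calcium fluorescence in TRPML1-DL cells induced overnight with Tet: a 110 s read after compound pin addition, then a 110 s antagonist read after challenge with 54-4 at 4 uM final (EC80).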
# Six1-Eya2 inh – inhibitors of human Six1/Eya2 interaction. AlphaScreen GST-Six1/His-Eya2 binding, biochemical; stronger effect = lower value; control for the full effect not named in the record. activity change, % (no concentration beside the values). Q15475+O00167. AID 651725. 0.56% of 360,000 active; in the data active = activity change below about -65%; inconclusive = about -30% to -65%; inactive = above about -30%; note: % is set by controls: 0 for no effect and ±100 for the full control effect; compound concentration not given in the record
#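 Six1/Eya2 binding was read as AlphaScreen signal after compounds were pinned into GST-Six1 plus His-tagged Eya2 (5X stock 250/500 nM) in pH 8.0 Tris/NaCl/TCEP buffer, beads added, then incubated 1 h, 37 C, dark.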
# TRPV1 potentiator – potentiators of human vanilloid receptor 1 (TRPV1); potentiation, % at 8.33 µM; AID 540277; 0.02% of 320,000 active; TRPV1-expressing cells, Fluo-8 calcium influx, capsaicin EC20 potentiation; host cell line not named in the record; control for the full effect not named in the record; active means potentiation above 80%; inconclusive means 30% to 80%; inactive means below 30%; note: 0% is about no effect
#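 Fluo-8 calcium influx in TRPV1-expressing cells, kinetic read (ex 480/em 520 nm). Compound added and read 3 min for agonist activity, followed by capsaicin at EC20 final and 2 min further read for enhancement.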
# CtBP-E1A inh – blocks the CtBP interaction with E1A; AlphaScreen GST-E1A/His-CtBP binding, 1536-well; stronger effect = lower value; control for the full effect not named in the record; activity change, % (concentration not given with the values); 0.49% of 340,000 active; AID 651724; in the data active means activity change below about -65%; inconclusive means about -30% to -65%; inactive means above about -30%; note: % is set by controls: 0 for no effect and ±100 for the full control effect
#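 In 5 uL wells, 23 nL compound meets equimolar GST-E1A and His-CtBP (5X stock 125 nM each) for 2 h, 37 °C. Beads (5X, 50 ug/mL) then 1 h, 37 °C, dark.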
# D2 PAM – human D2 receptor positive allosteric modulation; P14416; potentiation, % (concentration not given with the values); AID 624464; DiscoveRx D2 beta-arrestin cells, luminescence, 90 min; 100% = 57 uM dopamine signal; 0.23% of 360,000 active; active = potentiation of 50% or more; inconclusive = 30% to 50%; inactive = 30% or less;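 note: compound concentration not given in the record; tested on top of an EC20 dose of dopamine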
# Target sequence (P14416 whole entry, looked up): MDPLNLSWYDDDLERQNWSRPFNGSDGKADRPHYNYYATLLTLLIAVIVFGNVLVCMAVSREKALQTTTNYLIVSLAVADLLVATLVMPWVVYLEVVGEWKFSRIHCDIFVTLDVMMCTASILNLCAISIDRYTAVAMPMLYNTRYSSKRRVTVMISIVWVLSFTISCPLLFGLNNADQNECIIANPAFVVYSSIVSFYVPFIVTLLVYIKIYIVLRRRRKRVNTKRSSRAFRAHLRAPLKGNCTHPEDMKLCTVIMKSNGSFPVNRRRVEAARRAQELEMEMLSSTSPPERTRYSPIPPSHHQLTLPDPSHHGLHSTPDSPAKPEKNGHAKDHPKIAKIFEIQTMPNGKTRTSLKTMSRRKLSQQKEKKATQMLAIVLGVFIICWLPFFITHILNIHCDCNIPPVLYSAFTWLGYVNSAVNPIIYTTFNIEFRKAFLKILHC
#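 PathHunter D2 cells, attached overnight at 37 deg C, received compound in DMSO plus dopamine at EC20 (50 nM final) for 90 min at 37 deg C. Beta-arrestin recruitment was read as luminescence after 1 h with detection reagent at ambient temperature.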
# An asterisk follows results filed as active; u = inconclusive; x = no result given; & = joins results of further samples. This is a random part of the collection. About 0.95% of those tested had a hit in this group.
# Below each compound – TRPML1 ag, TRPML1 blocker, Six1-Eya2 inh, TRPV1 potentiator, CtBP-E1A inh, D2 PAM
Cn1c(=O)[nH]c(=O)c2c1nc(N)n2Cc1ccccc1
    0.3, 11, 4, -2, 3, -5
Cc1ccc(OCCn2c(=S)[nH]c3c(N)ncnc32)cc1
    0.3, -24, 1, 2, -10, -10
COc1ccc(NC(=O)CN2CCC(C(=O)c3ccc(C)cc3)CC2)c(OC)c1
    -0.5, -9, -5, 8, -3, -18
CCN(CC)S(=O)(=O)c1cccc(NC(=O)c2cc(-c3cccs3)nn2-c2ccccc2)c1
    1.3, 29, u, u, 3, -13
COc1cc(/C=C/c2sc3ccccc3[n+]2CCCS(=O)(=O)[O-])ccc1O
    1.2, 1, -11, -9, -5, -9
CCOC(=O)C1CCN(C(=O)c2ccc(C)c(S(=O)(=O)N3CCCC3)c2)CC1
    1.4, 2, 5, 5, 8, -11
CN(C)CC/C=C1\c2ccccc2Sc2cc(F)c(Cl)cc21
    3.6, 24, -5, x, -11, -17
O=C(C1CC1)N1CCc2[nH]c3ccccc3c2C1
    2.1, 48, -2, 7, -3, -3
Cc1ccc(NC(=O)N2CCCC2C(=O)NCc2ccccc2Cl)cc1 (configuration not stated)
    x, x, 1, 20, x, 27
Cc1ccc2cc(C(c3nnnn3Cc3ccccc3)N3CCN(c4ccccc4)CC3)c(=O)[nH]c2c1 (configuration not stated)
    0.5, -13, -15, -1, -16, -3
COCCn1c(C)cc(C(=O)CSc2n[nH]c(N)n2)c1C
    0.5, 26, -2, -30, -1, -18
Cc1cccc(C)c1NC(=O)CN1CCN(CC(=O)NCC2(N3CCCCC3)CCCCC2)CC1
    0.1, -1, 6, -8, -1, -5
O=S(=O)(c1ccccc1)C1(S(=O)(=O)c2ccccc2)CCCC1
    -0.3, 18, 7, 5, 1, 14
COc1cc(OC)c(OC)cc1/C=C1\CCC(C2CCCC2)C1=O (configuration not stated)
    1.0, 10, -3, -5, x, 7
C/C(=N\OC(=O)c1cccc(C(F)(F)F)c1)c1sc(-c2ccccc2)nc1C
    -0.5, 11, 4, 25, 0, -38
CSCCNC(=O)C1(C)CCN1C(=O)C/C=C/c1ccccc1 (configuration not stated)
    0.1, x, 9, x, -17, -5
Clc1ccccc1-c1cc2nc(NCc3ccco3)ccn2n1
    -0.4, x, -4, x, -7, -2
O=C(CN1C(=O)c2ccccc2C1=O)Nc1cc(C(=O)O)cc(C(=O)O)c1
    x, x, -14, 16, 3, -10
O=C1NN(c2ccccc2)C(=O)/C1=C\c1ccc2c(c1)OCO2
    0.1, -18, 3, 11, 11, -7
COc1ccc(C2CC(C(F)(F)F)n3nc(C(=O)NCCN4CCOCC4)cc3N2)cc1 (configuration not stated)
    0.3, -5, 7, 4, -5, 1

# An excerpt of these results, tab-delimited.
Structure	TRPML1 ag	TRPML1 blocker	Six1-Eya2 inh	TRPV1 potentiator	CtBP-E1A inh	D2 PAM
Cn1c(=O)[nH]c(=O)c2c1nc(N)n2Cc1ccccc1	0.3	11	4	-2	3	-5
Cc1ccc(OCCn2c(=S)[nH]c3c(N)ncnc32)cc1	0.3	-24	1	2	-10	-10
COc1ccc(NC(=O)CN2CCC(C(=O)c3ccc(C)cc3)CC2)c(OC)c1	-0.5	-9	-5	8	-3	-18

# Next part
# Below each compound – TRPML1 ag, TRPML1 blocker, Six1-Eya2 inh, TRPV1 potentiator, CtBP-E1A inh, D2 PAM
Cc1cccc(N2CCN(C(=O)c3ccccc3NC(=O)C3=CSCCO3)CC2C)c1 (configuration not stated)
    1.3, 30, -6, -8, -5, -6
O=C(Nc1ccc(Oc2ccccc2)nc1)[C@H]1O[C@@H](n2ccc(=O)[nH]c2=O)[C@H](O)[C@@H]1O
    -0.1, x, 0, x, 0, -6
CN(CC(=O)Nc1ccc2c(c1)OCO2)S(=O)(=O)c1ccc(F)cc1
    0.4, 5, 8, 4, 3, -4
Cc1ccc(/C=C/C(=O)OCC(=O)NC(C)C)o1
    1.2, -14, -6, 11, -1, -2
O=C(CCc1ccccc1)Nc1cc2c3c(c1)CCC(=O)N3CCC2
    -0.2, 4, -7, -20, -3, -18
Cc1cc(C)n(-c2nc(NC(C)(C)C)nc(NC(C)(C)C)n2)n1
    -0.9, 15, -1, -11, -5, 3
O=S(=O)(c1cccc2cccnc12)N1CCCCC1
    0.0, 22, -6, -15, -2, -3
Fc1ccccc1-c1n[nH]c(=S)n1Cc1ccccc1
    2.1, 21, 0, 0, x, -9
Cc1ccc(-c2nc3cnccn3c2Nc2ccc3c(c2)OCO3)o1
    0.3, 9, -9, 6, -14, 9
COC(=O)[C@@H]1CCCN1C(=O)CCc1nnc(C2CCCCC2)o1
    -0.1, 10, -8, 2, 7, 1
CCC(C)N(C(=O)c1csnn1)C(C(=O)NC(C)(C)C)c1ccccc1 (configuration not stated)
    -1.3, -10, 0, 1, 2, -5
COC(=O)[C@@]12CCCN1[C@H](c1ccc(-c3ccc(F)cc3)c(OC)c1)[C@H]1C(=O)N(C)C(=O)[C@H]12
    -0.3, -17, -2, u, -2, -4
CCCNC(=O)C1(C)CCN(C(=O)c2cccnc2Oc2ccccc2)C1 (configuration not stated)
    -0.6, x, 9, x, -6, -8
O=C(c1cc2c(s1)CCCC2)N1CCN(S(=O)(=O)c2ccccc2)CC1
    -0.8, 14, 2, -10, -5, -10
CCC(CO)NC(=O)c1cc2c(s1)CCC2 (configuration not stated)
    0.0, 21, 6, 2, -18, -8
C#CCOCCOCCOCCNc1nc(N2CCN(C(=O)[C@H](CCCCN)n3cc(CN)nn3)CC2)nc(N2CCN(C(=O)[C@H](CC(N)=O)n3cc(C(N)[C@H](C)CC)nn3)CC2)n1 (some centres not stated)
    -0.5, -10, -7, x, -1, -10
CC(OC(=O)c1cccs1)C(=O)NC1CC1 (configuration not stated)
    1.3, 9, 6, 0, 5, 0
Nc1c(N(Cc2ccco2)C(=O)c2cccc(F)c2)c(=O)[nH]c(=O)n1Cc1ccccc1
    0.6, 4, -18, 2, -16, -6
COc1ccc(CN(C(=O)c2snc(C(N)=O)c2N)C(C(=O)NC2CCCC2)c2ccc(OC)c(OC)c2)cc1 (configuration not stated)
    1.9, -4, 1, 1, 7, -2
C=CCNc1nc(Cl)nc(Nc2cc(Cl)ccc2OC)n1
    0.5, -2, -10, 1, 0, -5
O=C(NCC(O)c1ccc([N+](=O)[O-])cc1)C1CCCCC1 (configuration not stated)
    0.0, 18, 1, 4, -2, -6
COc1ccccc1NC(=O)Cc1ccc(-c2ccccc2)cc1
    0.5, 4, 5, 18, 35, -1
Cc1nn(C)c(C)c1S(=O)(=O)NCc1cccs1
    -0.6, -11, 24, 2, 5, -9
Cc1ccc(-c2nc(N)n(C(=O)c3cccs3)n2)cc1
    -0.2, -14, 1, -3, 9, 3
O=C(OCC(=O)N(CCc1ccccc1)Cc1ccccc1)c1ccccc1O
    2.5, 27, 44, -15, 1, -31
O=C(NC(Cc1ccc2c(c1)OCO2)C(=O)N1CCCC1C(=O)O)c1ccccc1 (configuration not stated)
    -0.2, -5, -8, 10, 0, 3
CN(CC(=O)Nc1ccc(Cl)cc1)C(=O)c1ccc(-n2cncn2)c([N+](=O)[O-])c1
    14, 6, 1, 4, 19, -4
CC(C)Cc1cc(C(=O)Nc2cc(C(F)(F)F)ccc2Cl)no1
    -0.5, 0, 48, -2, 43, -4
COc1ccc(CCN2CC(C(=O)Nc3nccs3)CC2=O)cc1OC (configuration not stated)
    -0.7, 31, -4, x, x, 2
O=C(Nc1ccc(OC(F)(F)F)cc1)C1CC(=O)N(Cc2ccco2)C1 (configuration not stated)
    0.3, -6, 2, -13, -3, 6
O=C(NCc1ccc(F)cc1)C1CCCN1S(=O)(=O)c1ccc(F)cc1 (configuration not stated)
    -0.3, -2, 4, x, 2, -11
Cc1ccccc1NC(=S)NCCc1ccccc1
    -0.3, -11, -1, 4, 1, 4
COc1ccc(NC(=O)C(c2ccc(OC)cc2)N(C)C(=O)Cc2cccs2)cc1 (configuration not stated)
    -0.4&1.6, -2&4, -1, u, -9, -12
C[C@H](CO)N1C[C@H](C)[C@@H](CN(C)C(=O)Nc2ccc3c(c2)OCO3)Oc2c(NC(=O)C3CCCCC3)cccc2C1=O
    -0.9, -1, -3, x, -2, -1
Cc1nc(C)n(C(C)CNS(=O)(=O)c2ccc(C)c(C)c2)n1 (configuration not stated)
    -0.1, -12, 7, 3, 8, -2
C=CC[C@@H](Cc1ccc(F)cc1)C(=O)OC[C@H]1CCCN1C(=O)[C@H](CC=C)CC(=O)N(CCO)Cc1ccccc1
    -0.6, 8, -1, x, 1, x
COc1cccc(N2[C@@H](CC(=O)O)c3ccc(/C=C/C(=O)O)cc3S2(=O)=O)c1
    0.0&-0.6, -8, u, x, 3, -6
O=C(CN1CCCCC1)Nc1ccccc1Oc1ccccc1
    2.7, -19, 9, -21, -10, -12
CNc1ccc(C(=O)OCC(=O)NC(=O)NC2CCCCC2)cc1[N+](=O)[O-]
    -0.9, -4, 12, x, 5, -3
CCSc1ccc([C@@H]2[C@H]3C(=O)N(C)C(=O)[C@H]3[C@]3(C(=O)OC)CCCCN23)cc1OC
    -1.3, 39, -2, 19, -5, -4
CCCCOc1ncnc2c1[nH]c1ccccc12
    4.3, 0, 7, 2, -2, 3
O=C1OCCN1C(=O)[C@H]1[C@H](c2ccccc2)C(c2cccc(Cl)c2)=NN1c1ccc(Br)cc1
    -0.2, 20, 66, x, 52, -4
COc1cc(/C=C(/NC(=O)c2ccccc2)C(=O)Nc2cccc(O)c2)c([N+](=O)[O-])cc1OC
    -0.4, -9, -2, 2, 4, -21
CSc1ccccc1C(=O)OCC(=O)NCCN1C(=O)CSC1=O
    -0.3, 24, 0, x, 9, -9
COc1ccc(/C=C2/N=C(SC3CCOC3=O)N(c3cccc(OC)c3)C2=O)cc1 (configuration not stated)
    1.0, -5, 8, 8, 4, -2
COc1cc(-c2nc(CN3CCCCC3CCNC(C)=O)c(C)o2)ccc1F (configuration not stated)
    0.6, 15, 1, 0, 4, -8
CCC(C)[C@H](NC(=O)[C@@H]1CSC2c3ccccc3C(=O)N21)C(=O)N1CCCCC1 (some centres not stated)
    -1.5, 19, -2, 3, 1, -7
CCc1ccc(N2C(=O)c3sc4nnc(-c5ccccc5)c(=O)n4c3C2=O)cc1
    2.0, 2, u, -2, u, -12
O=C(NCC1CCCO1)c1cc(S(=O)(=O)N2CCOCC2)c(Cl)cc1Cl (configuration not stated)
    0.7, 1, 1, 11, 1, 6
CCc1ccc(S(=O)(=O)NCCc2cn3ccccc3n2)s1
    -1.1, -14, -3, -4, -6, -12
CCOC(=O)CSc1nnnn1-c1cc(OC)c(Cl)cc1OC
    3.2, -11, 2, 10, 4, -17
COC(=O)CNC(=O)c1c(C)cc(=O)oc1C
    0.0, -20, 27, 11, 49, -4
COc1ccccc1C(=O)n1nc(-c2ccc(Cl)cc2)nc1N
    1.6, 4, -9, u, -4, -5
O=C(NCc1ccc2[nH]c3c(c2c1)CCCC3)c1ccc(S(=O)(=O)N2CCCC2)cc1
    0.2, 2, -1, 6, -13, -4
Cc1c(NC(=O)CSc2ccccc2C(=O)Nc2cccnc2)c(=O)n(-c2ccccc2)n1C
    -0.1, -4, 5, 0, -1, -12

# Screening data from PubChem.
